# From PubChem
# FEN1 inh: qHTS Assay for the Inhibitors of Human Flap endonuclease 1 (FEN1); Recombinant FEN1 flap cleavage, fluorescence, 15 min; Potency, µM (top dose mostly 114 µM), for inactives: at the top dose activity change, negative = inhibition, actives largely listed as inhibitors; 0.35% of 390,000 active; further: nearly all actives have a fitted effect of over 65% in size
# Target sequence (P39748 whole entry, looked up): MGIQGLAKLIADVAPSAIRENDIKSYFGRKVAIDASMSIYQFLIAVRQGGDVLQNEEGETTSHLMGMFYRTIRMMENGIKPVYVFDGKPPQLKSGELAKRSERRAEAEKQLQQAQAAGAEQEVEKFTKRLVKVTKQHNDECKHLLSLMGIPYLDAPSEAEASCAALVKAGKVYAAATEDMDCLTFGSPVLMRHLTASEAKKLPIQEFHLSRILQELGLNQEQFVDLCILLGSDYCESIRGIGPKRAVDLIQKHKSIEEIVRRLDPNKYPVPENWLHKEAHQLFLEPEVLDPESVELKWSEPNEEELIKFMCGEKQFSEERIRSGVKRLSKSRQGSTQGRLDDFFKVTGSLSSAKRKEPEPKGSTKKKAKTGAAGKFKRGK
#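 FEN1 at 10 nM, compound pretreatment for 15 min (room temperature), 50 nM final substrate to initiate; endpoint reads at 0 and 15 min; DMSO-only plates used as vehicle background.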
# N370S GC mod: qHTS Assay for Inhibitors and Activators of N370S glucocerebrosidase as a Potential Chaperone Treatment of Gaucher Disease | AID 2101, 2009 | N370S GC spleen homogenate, 4MU-glucoside fluorescence | 0.092% of 330,000 active | Lysosomal acid glucosylceramidase (Homo sapiens), P04062 | Potency, µM (series often up to 59.4 µM), without a hit: at the top dose activity change, negative = inhibition, actives largely listed as inhibitors;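 further: 0% = full enzyme activity and -100% = no enzyme basal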
# An asterisk follows results filed as active; ? = inconclusive; . = not tested or not shown; [ ] = remark or other dose. The call rests on the fitted dose curve; in most records, active means well fitted curve in the direction sought with a large enough effect; inconclusive means small, poorly fitted or top-dose-only effect, or another doubt; inactive means no such curve, though single readings can be large; an effect the other way counts as inactive or inconclusive. Unless noted, on the % scale 0 is the no-effect control and ±100 the full control effect; potency means the concentration at half of the fitted maximal effect. An excerpt, and most or all hits are left out here.
# Order of values: FEN1 inh	N370S GC mod
> O=C(C1CCCO1)N1CCN(c2ncccn2)CC1 (stereo not given)
  -1.9%	25.2%
> CCOC(=O)N1CCC(NC(=O)c2csc3c2CCCC3)CC1
  -17.1%	27.6%
> CCOC(=O)[C@H]1[C@H]2COc3ccccc3[C@@H]2N2C(=O)c3ccccc3NC(=O)[C@@]12C
  13.5%	-4.5%
> O=C(COc1ccccc1C(=O)c1cnn(-c2ccccc2)c1)Nc1ccc2ccccc2c1
  -9.0%	?
> CC(C)=CC(=O)NCc1c(Cl)cccc1-n1cccc1
  -8.2%	1.3%
> CNC(=O)NC(=O)CSc1nc2sccc2c(=O)n1-c1ccccc1
  2.6%	-5.0%
> CCCCCCn1c(C)nc2c(c1=O)c1nc3ccccc3nc1n2/N=C/c1ccco1
  -6.3%	-20.4%
> CCOC(=O)N1CCN(C(=O)C2CCCN(S(C)(=O)=O)C2)CC1 (stereo not given)
  8.7%	4.5%
> Cc1cc(C)nc(NC(=O)c2cccc([N+](=O)[O-])c2C)n1
  -5.1%	0.6%
> O=c1c2cnn(-c3ccccc3)c2ncn1Cc1cccc(Cl)c1
  -2.9%	1.3%
> O=C(Cn1c(Cc2ccccc2)nc2ccccc21)NCc1ccc2c(c1)OCO2
  5.0%	6.1%
> CCOC(=O)N1CCC(NC(=O)Cn2cc3c(n2)CCCC3)CC1
  -0.2%	2.2%
> Cc1ccc(NC(=O)C(=O)Nc2ccccn2)cc1
  -0.4%	-3.1%
> COc1ccc(CC(NC(C)=O)C(=O)NC2CCN(c3c(Cc4ccccc4)c(C)nc4ncnn34)CC2)cc1OC (stereo not given)
  .	-1.2%
> COc1ccc(CCNC(=O)Cn2ncc3c(=O)oc4ccccc4c32)c(OC)c1
  3.0%	.
> Cc1cccc(C(=O)Nc2ccc(C(=O)Nc3ccc(O)cc3)cc2)c1
  3.9%	-11.1%
> COc1cc(NC(=O)COC(=O)CO/N=C(\C)c2ccc3c(c2)OCO3)cc(OC)c1OC
  -6.3%	-0.4%
> O=C(COC(=O)CCOc1ccccc1)NCCC1=CCCCC1
  -16.2%	2.2%
> O=C(CN1CCOCC1)c1c[nH]c2ccccc12
  -6.2%	10.5%
> CCCCN1CN(S(=O)(=O)c2ccc(OC)cc2)c2nc3ccccc3nc21
  -0.8%	?

# Three entries out of the list above, arranged by the number in FEN1 inh, low to high.
# Order of values: FEN1 inh	N370S GC mod
> CCCCCCn1c(C)nc2c(c1=O)c1nc3ccccc3nc1n2/N=C/c1ccco1
  -6.3%	-20.4%
> O=C(C1CCCO1)N1CCN(c2ncccn2)CC1 (stereo not given)
  -1.9%	25.2%
> CCOC(=O)[C@H]1[C@H]2COc3ccccc3[C@@H]2N2C(=O)c3ccccc3NC(=O)[C@@]12C
  13.5%	-4.5%

# Next entries follow.
# Order of values: FEN1 inh	N370S GC mod
> O=C(COC(=O)/C=C/c1ccc(Cl)cc1)NCCN1C(=O)CSC1=O
  15.0%	-2.1%
> Cc1ccc2cc3c(NC(=O)C4CCCO4)nn(CC(C)C)c3nc2c1 (stereo not given)
  -2.4%	4.1%
> O=C(CNC(=O)C(c1ccccc1)c1ccccc1)N/N=C\c1ccc2c(c1)OCO2
  -5.3%	8.3%
> CCCCc1nc2cc(C(=O)NCc3ccccn3)ccc2o1
  14.4%	3.4%
> COc1cccc(C(=O)NC2CC3CCCC(C2)N3CC(=O)Nc2ccc(N(C)C)cc2)c1 (stereo not given)
  -17.7%	10.7%
> Cc1nc(CN2CCCCC2)cc(=O)[nH]1
  10.7%	-0.4%
> Cc1cc(/C=N/NC(=O)C(O)(c2ccccc2)c2ccccc2)c(C)n1-c1cccc(C(=O)O)c1
  ?	-9.9%
> O=C(CN1C(=O)C2CCCCC2C1=O)Nc1nc(-c2ccc(F)cc2)cs1 (stereo not given)
  11.8%	-24.5%
> O=c1c2cc(NC(=S)NC3CCCC3)ccc2nc2n1CCCCC2
  -3.1%	10.3%
> CC(Nc1ccccc1)C(=O)Nc1ccc(F)cc1 (stereo not given)
  5.2%	-7.0%
> CCc1ccc(S(=O)(=O)Nc2cc(SCC(=O)O)c(O)c3ccccc23)cc1
  ?	25.7%
> COCCNC(=O)c1ccccc1NC(=O)c1ccc(OC)c(OC)c1
  -9.4%	-3.7%
> Nc1nc(SCC(=O)N2CCN(c3ccc(F)cc3)CC2)n[nH]1
  -0.1%	.
> O=C1NC(O)=NC1(c1ccccc1)c1ccccc1
  .	4.9%
> CCCCNC(=O)CSc1nc2ccccc2n1S(=O)(=O)c1ccc(Br)cc1
  -10.3%	-16.3%
> CCNS(=O)(=O)c1ccc(NC(=O)c2ccc(Cn3cc([N+](=O)[O-])cn3)o2)cc1
  -15.7%	-6.2%
> Cc1sc2nc(SCC(=O)N(C)C)[nH]c(=O)c2c1C
  -4.0%	3.7%
> CCCC/C=C/[C@H](c1ccccc1)[C@H](CO)Cc1ccc([N+](=O)[O-])cc1
  -12.1%	-7.0%
> O=C(Nc1ccnn1C1CCN(Cc2ccccc2)CC1)c1ccccc1Cl
  19.4%	-18.3%
> Cc1ccccc1N=C1NC(=O)CS1
  -1.9%	-1.5%

# Further records:
# Order of values: FEN1 inh	N370S GC mod
> Cc1ccc(OCC(=O)Nc2ccc(F)cc2)cc1C
  15.5%	4.7%
> CC1CN(C(=O)CCC(=O)Nc2cc(F)ccc2F)c2ccccc2S1 (stereo not given)
  -15.7%	.
> O=C(COC(=O)c1ccccc1Br)NCC1CCCO1 (stereo not given)
  -14.9%	.
> Cc1ccccc1SCCNC(=O)CCc1ccccc1
  .	-7.8%
> COc1ccccc1NC(=O)Cn1c(=O)n(Cc2ccccc2)c(=O)c2c1c1cc(C)ccc1n2C
  20.2%	.
> CCOc1ccc(NC(=O)COc2ccc(C(=O)NC3CCCc4ccccc43)cc2OC)cc1 (stereo not given)
  -4.8%	-4.4%
> CCn1cc([N+](=O)[O-])c(C(=O)Nc2cc(C)on2)n1
  5.2%	4.8%
> CC1CCN(c2nc(CN3CCCCC3)nc3scc(-c4ccccc4)c23)CC1
  -13.6%	-3.4%
> Cc1ccc(C(=O)O)cc1S(=O)(=O)N1CCCC1
  -11.9%	5.1%
> C(=C/c1ccnc2nc(SC/C=C/c3ccccc3)nn12)/c1ccccc1
  0.3%	4.7%
> COc1ccccc1OCC(=O)N1CCN(S(=O)(=O)c2ccc(Cl)cc2)CC1
  1.3%	-4.3%
> COc1cc(C(=O)NCC(C)C)c([N+](=O)[O-])cc1OC
  10.4%	-9.8%
> Cc1ccc(C)c(NC(=O)C2CC(=O)N(C3CCCCC3)C2)c1 (stereo not given)
  -14.8%	2.3%
> CCCC(=O)c1ccc2c(c1)OCCO2
  -3.9%	-21.4%
> Cc1ccc(S(=O)(=O)N2CCN(c3nc(C)nc4sc5c(c34)CCC(C)C5)CC2)cc1 (stereo not given)
  .	19.3%
> O=C(Sc1nnnn1C1CCCCC1)c1cccs1
  .	5.0%
> C#Cc1ccc([C@H]2C=C(C(=O)N3CCOCC3)O[C@@H](OCC)[C@@H]2CCCO)cc1
  -8.3%	8.1%
> O=C(NCCOc1ccc(F)cc1)C1CCC(=O)N(CCN2CCOCC2)C1 (stereo not given)
  -4.7%	2.8%
> CCN(CC)c1ccc(N)cc1S(=O)(=O)Nc1ccccc1OC
  -3.5%	-3.2%
> Oc1cccc2cc3cccc(O)c3c(O)c12
  -12.3%	-2.7%

# An excerpt of these results, tab-delimited:
Structure	FEN1 inh	N370S GC mod
C#Cc1ccc([C@H]2C=C(C(=O)N3CCOCC3)O[C@@H](OCC)[C@@H]2CCCO)cc1	-8.3%	8.1%
O=C(COC(=O)c1ccccc1Br)NCC1CCCO1 (stereo not given)	-14.9%	.
CC1CCN(c2nc(CN3CCCCC3)nc3scc(-c4ccccc4)c23)CC1	-13.6%	-3.4%

# The listing picks up; the three compounds before the break are reprinted first.
# Order of values: FEN1 inh	N370S GC mod
> O=C(NCCOc1ccc(F)cc1)C1CCC(=O)N(CCN2CCOCC2)C1 (stereo not given)
  -4.7%	2.8%
> CCN(CC)c1ccc(N)cc1S(=O)(=O)Nc1ccccc1OC
  -3.5%	-3.2%
> Oc1cccc2cc3cccc(O)c3c(O)c12
  -12.3%	-2.7%
> Cc1ccc(SCC(=O)NCC(C)C)cc1
  -1.8%	0.6%
> Cc1ccc(-c2cc(C(=O)N3CCN(c4ccccc4O)CC3)c3ccccc3n2)cc1
  -10.9%	-19.0%
> CC(=O)NC12CC3CC(C1)CC(C(=O)NCc1ccc(C)cc1)(C3)C2
  8.4%	5.0%
> O=C(Nc1ccc(F)cc1)C1CCN(C(=O)NCc2ccccc2)CC1
  -0.7%	-7.3%
> COc1ccc(S(=O)(=O)N(C)c2ccc(C(=O)Nc3ccccc3C(=O)N3CCOCC3)cc2)cc1
  0.2%	-11.1%
> CN(CC(=O)Nc1cccc(F)c1)C(=O)CCCc1c[nH]c2ccccc12
  4.8%	.
> O=C(CSc1ncn[nH]1)OCN1C(=O)c2ccccc2C1=O
  -10.0%	-1.6%
> CC(=O)Nc1ccc(SC[C@H](Cc2ccccc2)N2CC[C@@H](C(C)(C)C)CCC2=O)cc1
  ?	.
> Cc1cc(NS(=O)(=O)c2ccccc2)cc(Cl)c1O
  4.7%	0.8%[2.35 µM]
> CCNC(=O)C1CCN(c2nnc(C)c3c(C)n(-c4ccc(OC)cc4)nc23)CC1
  -0.6%	.
> N#Cc1c(-c2cccs2)cc(C2CC2)nc1SCC(N)=O
  9.9%	7.0%
> Cc1cc(NC(=O)COC(=O)C(Nc2ccc(C(F)(F)F)cc2Cl)C(C)C)no1 (stereo not given)
  -22.7%	-8.4%
> S=C(NCCN1CCOCC1)N/N=C/c1c2ccccc2cc2ccccc12
  -25.6%	?
> COc1ccccc1NC(=O)CCN1C(=O)c2ccccc2S1(=O)=O
  -8.6%	1.3%
> CCN1CCN(C(c2cccs2)C(C)NC(=S)NC2CCCCC2)CC1 (stereo not given)
  -2.7%	-2.1%
> Cc1cnc(CNC(=O)C2CCC(=O)N(CCc3cccc(F)c3)C2)[nH]1 (stereo not given)
  -12.9%	-2.8%
> O=C1CN(C(=O)/C=C/c2ccccc2F)c2ccccc2N1
  -9.4%	5.9%
> CCOC(=O)c1cnc(-n2[nH]c(C)cc2=O)[nH]c1=O
  -23.2%	-5.2%

# Among those listed so far, two contain a furan ring, fused or not:
# Order of values: FEN1 inh	N370S GC mod
> CCCCCCn1c(C)nc2c(c1=O)c1nc3ccccc3nc1n2/N=C/c1ccco1
  -6.3%	-20.4%
> CCNS(=O)(=O)c1ccc(NC(=O)c2ccc(Cn3cc([N+](=O)[O-])cn3)o2)cc1
  -15.7%	-6.2%
